Source: PubChem (National Center for Advancing Translational Sciences (NCATS))
CtBP-E1A inh = blocks the CtBP interaction with E1A; activity change, % (test concentration not listed); AID 651724; AlphaScreen GST-E1A/His-CtBP binding, 1536-well; stronger effect = lower value; control for the full effect not named in the record; 340,000 compounds, 0.49% hits; in the data active means activity change below about -65%; inconclusive means about -30% to -65%; inactive means above about -30%; note: % is set by controls: 0 for no effect and ±100 for the full control effect
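Steps: dispense buffer (Tris pH 8.0, NaCl 300 mM, TCEP 1 mM, BSA, Tween 20); add 5X protein mix (GST-E1A, His-CtBP, 125 nM each); pin 23 nL compound; 2 h at 37 °C, dark; add 5X beads (50 ug/mL); 1 h; read.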
TRPML1 ag = activates the human TRPML1 channel; AID 624414; TRPML1-expressing cells, Ca2+ dye fluorescence, FDSS; host cell line not named in the record; reference of the full effect not given here; activation, % (test concentration not listed); 410,000 compounds, 0.12% hits; in the data active = activation above about 50%; inconclusive = about 30% to 50%; inactive = below about 30%; note: 0% is about no effect; the text of the record puts the active cut at 80%
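In this qHTS format, compounds were pin-transferred onto Ca8-dye-loaded TRPML1-DL cells induced with Tet overnight, and intracellular Ca2+ fluorescence was recorded kinetically for 110 s after a 10 s baseline. A subsequent 4uM final 54-4 (EC80) addition followed by a second 110 s read served as the antagonist phase.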
TRPV1 potentiator = potentiators of human vanilloid receptor 1 (TRPV1); AID 540277; TRPV1-expressing cells, Fluo-8 calcium influx, capsaicin EC20 potentiation; host cell line not named in the record; control for the full effect not named in the record; potentiation, % at 8.33 µM; Q8NER1; 320,000 compounds, 0.02% hits; active means potentiation above 80%; inconclusive means 30% to 80%; inactive means below 30%; note: 0% is about no effect
Target sequence (Q8NER1 whole entry, looked up): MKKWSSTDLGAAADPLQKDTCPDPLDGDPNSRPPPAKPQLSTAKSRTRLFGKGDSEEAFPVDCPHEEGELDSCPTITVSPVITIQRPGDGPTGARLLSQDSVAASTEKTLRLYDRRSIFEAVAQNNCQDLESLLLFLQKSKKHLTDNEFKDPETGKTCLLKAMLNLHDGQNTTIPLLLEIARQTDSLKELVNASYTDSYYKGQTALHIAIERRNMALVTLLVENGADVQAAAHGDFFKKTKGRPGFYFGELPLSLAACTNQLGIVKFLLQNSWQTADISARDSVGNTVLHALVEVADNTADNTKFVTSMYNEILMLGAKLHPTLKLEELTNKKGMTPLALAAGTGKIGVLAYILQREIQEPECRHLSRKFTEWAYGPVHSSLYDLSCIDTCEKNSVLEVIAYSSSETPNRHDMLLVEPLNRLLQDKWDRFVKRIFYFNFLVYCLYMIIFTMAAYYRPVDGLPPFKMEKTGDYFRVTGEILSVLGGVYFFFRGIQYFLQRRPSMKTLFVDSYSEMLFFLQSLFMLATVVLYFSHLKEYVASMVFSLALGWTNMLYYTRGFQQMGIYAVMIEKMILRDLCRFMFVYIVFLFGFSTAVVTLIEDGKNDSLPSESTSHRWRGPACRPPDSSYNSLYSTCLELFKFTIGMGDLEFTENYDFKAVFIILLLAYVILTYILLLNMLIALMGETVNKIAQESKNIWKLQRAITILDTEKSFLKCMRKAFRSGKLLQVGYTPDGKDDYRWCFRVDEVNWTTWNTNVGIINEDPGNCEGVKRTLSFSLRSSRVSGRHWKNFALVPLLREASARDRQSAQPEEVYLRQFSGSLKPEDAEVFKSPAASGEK
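Cells expressing TRPV1 were dye-loaded with Fluo-8 and read kinetically: 10 s baseline, 3 min after compound (agonist portion), then 2 min after EC20 capsaicin (allosteric enhancer portion). Calcium-bound dye fluorescence at 480/520 nm.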
D2 potentiator = potentiates the human D2 dopamine receptor allosterically; P14416; DiscoveRx D2 beta-arrestin cells, luminescence, 90 min; 100% = 57 uM dopamine signal; potentiation, % (concentration not given with the values); 360,000 compounds, 0.23% hits; active = potentiation of 50% or more; inconclusive = 30% to 50%; inactive = 30% or less;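 note: tested on top of an EC20 dose of dopamine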
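PathHunter beta-arrestin assay in DiscoveRx D2 cells. Compounds were added with an EC20 of dopamine (50 nM final) for 90 min at 37 deg C. Luminescence was read 1 h after detection reagent, with 57 uM dopamine as the EC100 control.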
Six1-Eya2 inh = blocks human Six1 binding to Eya2. Q15475+O00167. AlphaScreen GST-Six1/His-Eya2 binding, biochemical; stronger effect = lower value; control for the full effect not named in the record. activity change, % (concentration not given with the values). 360,000 compounds, 0.56% hits. AID 651725; in the data active = activity change below about -65%; inconclusive = about -30% to -65%; inactive = above about -30%; note: % is set by controls: 0 for no effect and ±100 for the full control effect
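AlphaScreen with GST-Six1 and His-Eya2 (5X mix: 250 nM and 500 nM), glutathione donor and nickel acceptor beads; buffer 50 mM Tris pH 8.0, 300 mM NaCl, 1 mM TCEP; 1 h at 37 C in the dark.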
TRPML1 blocker = blocks the human TRPML1 channel; Q9GZU1; TRPML1-inducible cells, Ca2+ dye fluorescence, FDSS; stronger effect = lower value; inhibition of EC80 agonist-evoked calcium signal; activity change, negative = inhibition, % (no concentration beside the values); 390,000 compounds, 0.02% hits; in the data active means activity change below about -50%; inconclusive means about -30% to -50%; inactive means above about -30%;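 note: stimulus is agonist 54-4 at its EC80 concentration; % is set by controls: 0 for no effect and ±100 for the full control effect; compound concentration not given in the record; the text of the record puts the active cut at -80%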
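Calcium fluorescence in TRPML1-DL cells induced overnight with Tet: a 110 s read after compound pin addition, then a 110 s antagonist read after challenge with 54-4 at 4 uM final (EC80).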
Active calls of the source: *; ? = inconclusive; / = not tested or not shown; & = joins results of further samples. Random draw from the library. Share with any hit: about 0.95%.

SMILES	CtBP-E1A inh	TRPML1 ag	TRPV1 potentiator	D2 potentiator	Six1-Eya2 inh	TRPML1 blocker
CCCNC(=O)OC1CC2CC1[C@H]1CCCCN1C2=O (stereo partly specified)	-15	-0.1	/	/	7	/
Cc1cccc(C)c1OCCOC(=O)c1ccc(S(=O)(=O)N2CCCC2)cc1	2	1.6	/	-9	15	15
COCCNc1ccc(-c2n[nH]c(=O)c3ccccc23)cc1[N+](=O)[O-]	8	1.2	3	-1	6	-20
COc1ccc(C2C3=C(CCCC3=O)NC3=C2C(=O)c2ccccc23)cc1 (stereo unspecified)	-30	5.0	-13	-18	-26	14
COc1ccc(CN2C(=O)CN=C2Nc2cccc(C)c2C)cc1	1	-0.9	-7	-3	3	-1
COc1cc(/C=N/n2c(C)n[nH]c2=S)ccc1OCc1ccccc1	2	0.2	2	-14	3	2
CC(C)COC(=O)c1ccc2c(c1O)C(=O)c1ccccc1C2=O	-19	-1.3	24	62*	-23	25
C/C(CC(=O)Nc1cc(C)ccn1)=N\NC(=O)c1ccc(C(C)(C)C)cc1	-3	2.0	-6	-4	5	-9
CCOc1ccc(NC(=O)CCN2C(=O)C3CCCCC3C2=O)cc1OCC (stereo unspecified)	7	0.9	-3	-21	2	3
CCCc1cc(=O)[nH]c(SCC(=O)N2CCc3ccccc32)n1	/	1.0	/	4	-1	26
COc1ccc(CCNC(=O)CCCn2nc(C)c([N+](=O)[O-])c2C)cc1OC	4	-0.8	5	3	-9	7
Cn1c(CC(=O)NN)c(Sc2ccccc2)c2ccccc21	-6	3.6	-1	1	0	8
CCCCOc1c(Cl)cc(CNC(C)(C)CO)cc1OCC	-4	4.9	0	-10	5	-14
O=C(N/N=C/c1cccc(NC(=O)c2ccc(Cl)cc2)c1)c1cccc(O)c1	-22	2.1	0	6	-19	4
CCn1c2ccccc2c2nnc(SCCN3CCOCC3)nc21	/	/	?	4	5	/
CCn1c(SCC(=O)NCc2ccc3c(c2)OCO3)nnc1-c1cccs1	-2	-0.4	6	-22	0	15
CC(=O)Nc1cc(-c2ccccc2Cl)cn2c(-c3ccc(S(C)(=O)=O)cc3)cnc12	0	0.4	/	3	-7	/
CCC(C)NCCOCCOc1cc(C)c(Cl)c(C)c1 (stereo unspecified)	0	0.2	4	-2	-10	7
COc1cc(C(=O)NCC(c2ccco2)N2CCCC2)ccc1OCc1ccc(Cl)cc1Cl (stereo unspecified)	/	-0.8	/	-9	-11	17
O=C(CSc1nnc(-c2cccs2)n1-c1ccccc1)N1CCOCC1	8	-0.3	-7	8	-2	15
Cc1ccc2nc(N3CCN(C(=O)c4ccc(F)cc4)CC3)c(C#N)cc2c1	/	/	?	-8	8	/
N#Cc1ccc(CSc2ccc(S(=O)(=O)N3CCCC3)cn2)cc1	12	3.0	-3	-1	-1	9
CC(=O)N1CCN(c2ccc(NCc3ccc(F)cc3)cc2)CC1	-4	1.2	-5	18	-16	-15
Cc1ccc(C(=O)OCC(=O)N2CCC(Cc3ccccc3)CC2)cc1N	4	0.6	-14	-1	-8	-9

Of the compounds above, these contain an aryl methoxy group:
SMILES	CtBP-E1A inh	TRPML1 ag	TRPV1 potentiator	D2 potentiator	Six1-Eya2 inh	TRPML1 blocker
COc1ccc(C2C3=C(CCCC3=O)NC3=C2C(=O)c2ccccc23)cc1 (stereo unspecified)	-30	5.0	-13	-18	-26	14
COc1ccc(CN2C(=O)CN=C2Nc2cccc(C)c2C)cc1	1	-0.9	-7	-3	3	-1
COc1cc(/C=N/n2c(C)n[nH]c2=S)ccc1OCc1ccccc1	2	0.2	2	-14	3	2
COc1ccc(CCNC(=O)CCCn2nc(C)c([N+](=O)[O-])c2C)cc1OC	4	-0.8	5	3	-9	7
COc1cc(C(=O)NCC(c2ccco2)N2CCCC2)ccc1OCc1ccc(Cl)cc1Cl (stereo unspecified)	/	-0.8	/	-9	-11	17

(listing goes on)
SMILES	CtBP-E1A inh	TRPML1 ag	TRPV1 potentiator	D2 potentiator	Six1-Eya2 inh	TRPML1 blocker
CCc1nnc(NC(=O)CC23CC4CC(CC(C4)C2)C3)s1	-3	-0.3	-5	-3	-1	-3
CC(Nc1c([N+](=O)[O-])c(=O)oc2ccccc12)c1ccccc1 (stereo unspecified)	6	0.3	9	-14	-4	-7
O=C(NCc1ccco1)C1CCCN(S(=O)(=O)c2ccc(Br)cc2)C1 (stereo unspecified)	0	-1.0	8	-11	0	-9
Cc1ccc(CNC(=O)Cn2ncn3cccc3c2=O)cc1	-2	-0.1	13	-2	-1	4
CC1(C(=O)NCc2ccccc2)CCC(=O)N1CCOc1ccccc1 (stereo unspecified)	3	-0.6	/	-3	10	/
COc1ccc(CN/C=C2\CCCCC2=O)cc1	12	-0.7	-9	-14	-2	3
ClCCCc1cn(C[C@H]2CC[C@@H]([C@@H]3CC[C@H](Cn4cc(CCCCl)nn4)O3)O2)nn1	-13	0.4	-15	-4	12	21
O=C(O)c1ccccc1-c1cn2cc(Cl)ccc2n1	8	0.7	7	-10	-2	1
CC[C@@H]1C(c2ccccc2)=NN(c2ccccc2)[C@H]1C(=O)N1CCOC1=O	41	4.2	/	1	35	16
CCN(CC)c1ccc(S(=O)(=O)N2CCCCC2)cc1NC(=O)C1CSC2(C)CCC(=O)N12 (stereo unspecified)	-9	0.2	-3	8	-10	11
Cc1ccc(NC(=O)CSc2ncc3ccccn23)cc1C	/	1.7	?	-3	-2	18
O=C(c1cc2ccccc2o1)N1CCN(c2ccccn2)CC1	0	-0.1	23	3	-2	-7
C=CCOc1ccc(/C=C2\SC(=S)N(N3CCOCC3)C2=O)cc1	-19	-0.3	-8	-8	-24	7
Cc1cc(CN(C)C(=O)C2CCC(=O)N(CCc3cccc(F)c3)C2)on1 (stereo unspecified)	23	-0.5	7	4	2	5
COc1cc(OC)cc(C(=O)Nc2nnc(Cc3ccc(OC)c(OC)c3)s2)c1	-12	1.1	9	2	-10	1
COc1ccc(CC(=O)NCCCc2ccccc2)cc1OC	1	2.0	-22	1	6	2
CCCCN(C(=O)Nc1ccc(Cl)cc1)C1CCN(C(C)=O)CC1	2	1.6&-0.1	-4	-23	1	2&-7
COc1ccc(OC)c(CCNC(=O)CCc2cn(C)c3ccccc23)c1	-6	2.1	21	-2	-20	5
O=C(Nc1cccc(Cl)c1)OCc1cn(-c2ccccc2)nn1	3	0.0	28	-9	-1	14
Cc1nc(-c2cccc(NS(=O)(=O)c3ccccc3)c2)cs1	16	4.2	-2	-32	14	-12
NC(=O)c1cc2ccc(O)cc2oc1=NCc1ccccc1	-3	59*	1	-4	-5	-15
O=C(O)CCC(=O)Nc1ccc(/C=C/C(=O)C2CC2)cc1	/	0.2	14	-3	4	-5
COc1cc(F)ccc1-c1csc(C(C)(NC(C)=O)c2ccccc2)n1 (stereo unspecified)	-8	-0.5	/	2	2	/
O=C(CSc1ccc(-c2ccncc2)nn1)c1ccc(Cl)cc1	-4	-0.9	10	-6	8	25
CCOC(=O)/C(C(=O)Nc1ccccc1Br)=C1/NC(C)(C)Cc2ccccc21	1	0.6	-10	-7	-7	-12
O=C(c1ccc2nc(N3CCOCC3)sc2c1)N1CCC(Cc2ccccc2)CC1	0	1.3	-1	-2	-9	4
COC(=O)c1ccccc1NC(=O)C1CCN(c2ncnc3c2nc2n3CCCCC2)CC1	-7	1.5	-11	-3	3	12
COc1ccc(-c2noc(CCC(=O)N(C)c3cccc(C)c3)n2)cc1	14	-0.7	5	-3	-1	8
Cc1ccccc1NC(=O)Cc1nnc(SCC(=O)NC2=NCCS2)n1C	0	-0.2	-6	0	6	0
CCOC(=O)Cn1ncc2c(=O)oc3ccccc3c21	6	-0.1	-13	-1	8	9
CCOc1cc(/C=C2\SC(=N)N(c3nonc3N)C2=O)ccc1OCC(N)=O	-11	0.9	-8	-18	-5	-19
COc1ccnc(Oc2ccc(C)cc2C)c1C#N	56	2.6	-2	-6	28	12
CC(C)[C@H](NC(=O)Nc1cccc(C(F)(F)F)c1)C(=O)O	-1	-0.6	7	7	13	-20
O=C(CNc1cc(S(=O)(=O)N2CCOCC2)ccc1N1CCOCC1)Nc1cccc(C(F)(F)F)c1	-6	3.4	/	-4	-2	-5
O=C(O)c1nccnc1C(=O)N1CCN(c2ccccc2)CC1	1	0.1	-14	-23	9	17
CC(=O)Nc1ccccc1C(=O)C(=O)Nc1cccc(C(=O)NCC2CCCO2)c1 (stereo unspecified)	0	-0.6	?	17	1	-5

Pulled one by one from the entries so far (3):
SMILES	CtBP-E1A inh	TRPML1 ag	TRPV1 potentiator	D2 potentiator	Six1-Eya2 inh	TRPML1 blocker
COc1ccc(-c2noc(CCC(=O)N(C)c3cccc(C)c3)n2)cc1	14	-0.7	5	-3	-1	8
CCOC(=O)Cn1ncc2c(=O)oc3ccccc3c21	6	-0.1	-13	-1	8	9
CCOc1cc(/C=C2\SC(=N)N(c3nonc3N)C2=O)ccc1OCC(N)=O	-11	0.9	-8	-18	-5	-19

(next part)
SMILES	CtBP-E1A inh	TRPML1 ag	TRPV1 potentiator	D2 potentiator	Six1-Eya2 inh	TRPML1 blocker
CCOC(=O)C1=NN(c2cccc(C)c2)C2(S1)SC(C(C)=O)=C(C)N2c1ccccc1 (stereo unspecified)	-2	0.3	10	-8	8	23
CC(Oc1cccnc1[N+](=O)[O-])C(=O)N1CCc2ccccc21 (stereo unspecified)	-13	-0.2	/	-14	18	-6
COc1cc2c(cc1OC)C(COc1cccc(C(F)(F)F)c1)NCC2 (stereo unspecified)	-7	-0.9	-7	-31	-2	53
Cc1nn(CC(=O)NC(C)C(C)C)c(C)c1S(=O)(=O)N1CCCCC1 (stereo unspecified)	-1	0.5	-2	-26	9	-5
Cc1cc(SCC(=O)Nc2ccc(O)cc2)n2ncc(-c3ccccc3)c2n1	-9	-0.1	-2	-3	-9	-3
Cc1ccc(C(=O)NC2CCS(=O)(=O)C2)cc1S(=O)(=O)N1CCOCC1 (stereo unspecified)	0	0.5	?	-20	3	-6
Nc1ncn(C(=S)Nc2ccccc2)n1	9	0.0	/	-12	-12	32
CCc1ccc(Nc2nnc(SC(C)C(=O)NC3CC3)s2)cc1 (stereo unspecified)	0	1.1	/	-1	-14	-14
CCCCNc1ccc(C(CC(N)=O)NC(=O)Cc2ccc(Br)cc2)cc1[N+](=O)[O-] (stereo unspecified)	1	0.4	10	-6	0	-8
Nn1c(SCc2ccccc2)nc2c(cnn2-c2ccccc2)c1=O	7	1.4	0	-5	-5	-1
Cc1ccc(-c2cc(C(F)F)nc(NCc3cccs3)n2)cc1	10	1.1	-7	-5	58	-1
COCC(C)n1c(C)cc(C(=O)COC(=O)c2cccn2C)c1C (stereo unspecified)	?	1.0	/	-6	-15	-2
CC(Sc1nnnn1C)C(=O)Nc1cc(S(=O)(=O)N2CCCCC2)ccc1Cl (stereo unspecified)	3	-0.5	22	-4	-3	-9
O=C(Oc1ccc(Cl)c2cccnc12)c1cccnc1	-82*	0.0	?	-53	-93*	9
CC1CCCCN1CCNC(=O)C1CCN(S(=O)(=O)c2cccc3cccnc23)CC1 (stereo unspecified)	0	0.8	2	-1	16	-9
COc1ccc(Cn2c(=O)[nH]c3cc(C(=O)N4CCN(c5ccc(C(C)=O)cc5)CC4)ccc3c2=O)cc1	-6	-0.2	0	-4	-2	0
CCOC(=O)c1sc(=NC(=O)c2cccc(Br)c2)n(C)c1C	5	-0.8	11	-9	2	0
